MgrA-DNA mod: alters Staphylococcus aureus MgrA binding to DNA; 84,000 tested, 0.13% active; inhibition, %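 (about 10 µg/mL by stock and volumes)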; fluorescence polarization; AID 602314;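 active = above 50% in either of two replicates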;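 also: 0% = protein plus DNA without compound and 100% = DNA alone without protein; higher means less MgrA bound to DNA so lower polarization; one replicate is shown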
Sa helicase inh: blocks Staphylococcus aureus DNA helicase; AID 485395; purified S. aureus helicase, fluorescence unwinding assay; about half of the hits fall short of the stated cut; 120,000 tested, 0.05% active; inhibition, %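 (tested at about 80 µM)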;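 active = both duplicates at 50% or more, or one of them with a favoured structure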;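 also: 0% = mean of negative control wells and 100% = mean of positive control wells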
The depositor's hits bear a star; / = not tested or not shown. Only part of the results is shown; count on the stated rates, not on these rows.

SMILES	MgrA-DNA mod	Sa helicase inh
COc1ccc(/C=C2/SC(=O)N(CC(=O)NCCO)C2=O)cc1OC	1.8	5.0
CCOC(=O)c1c(-c2ccccc2)oc2c1cc(OC(=O)c1c(Cl)c(Cl)c(Cl)c(Cl)c1Cl)c1ccccc12	0.9	/
CCCc1cc2c(=O)c(-c3ccc4c(c3)OCO4)c(CCC)oc2cc1O	2.1	0.0
CN1CCN(Cc2oc(CO)cc(=O)c2O)CC1	/	13.0
CC(C)=N/N=C1/NC(=O)C(CC(=O)Nc2ccc(C(=O)O)cc2)S1 (stereo not drawn)	-0.6	-5.0
CC(=O)N(/N=c1\sc2ccccc2n1C(C)=O)C(C)=O	/	-7.0
CCOC(=O)C1=C(C)N=c2s/c(=C\c3ccc(OCC)cc3)c(=O)n2C1c1cc(OC)ccc1OC (stereo not drawn)	0.3	/
CCOC(=O)c1c(NC(=O)c2ccco2)sc(C(=O)Nc2cc(C(F)(F)F)ccc2Cl)c1C	-0.6	/
Cc1ccc(-c2nn(-c3ccccc3)cc2/C=N/O)o1	/	-12.0
Cc1ccc2oc(-c3ccc(NC(=O)c4cc(Br)ccc4Cl)cc3O)nc2c1	3.1	/
O=C(Cn1nnc(-c2ccccc2)n1)N1CCCc2ccccc21	-0.6	-12.0
N#Cc1c(NC(=O)C2=COCCO2)sc2c1CCCC2	/	-8.0
CCn1c2ccccc2c2cc(NC(=O)c3cccs3)ccc21	/	0.0
COc1ccc(C(=O)N2CCc3cc(OC)c(OC)cc3C2c2ccccc2)cc1 (stereo not drawn)	1.8	8.0
O=C(NCCN1CCN(Cc2ccccc2)CC1)Nc1ccccc1	-1.2	/
COc1cccc(OC)c1C(=O)N1CCN(C(=O)c2ccccc2)CC1	/	23.0
O=C(Cn1cnc2c(oc3ccccc32)c1=O)NCc1ccccc1	0.5	8.0
Cc1ccc(-c2nnc(SCC(=O)OC(C)C)o2)cc1	/	17.0
COc1cccc(-n2c(=O)c3c(C)c(C)sc3n(CC(=O)NCCC3=CCCCC3)c2=O)c1	1.6	3.0
CCOC(=O)c1cc(C(C)(C)C)[nH]c(=O)c1C#N	-1.5	/
Cn1ccnc1C(=O)c1ccc(F)cc1	/	9.0
Fc1ccc(-c2nnc3ccc(SCc4ccccc4)nn23)cc1	/	-15.0
O=C(COc1ccccc1)NC(Cc1ccccc1)C(=O)O (stereo not drawn)	/	-22.0
COCC(=O)Nc1cccc2ccccc12	-0.3	14.0
Cc1ccccc1-n1c(SC(C)C(=O)NC(N)=O)nnc1-c1ccc(Cl)cc1 (stereo not drawn)	/	-5.0
Cc1nn(-c2ccccc2)c(C)c1C(=O)N(Cc1ccco1)Cc1cccs1	/	-15.0
COC(=O)CNC(=O)c1cc(-c2ccc(F)cc2)nc2ccccc12	-11.1	9.0
COc1ccccc1CNC(=O)C1CCCN1S(=O)(=O)c1ccc2c(c1)C(C)(C)C(=O)N2C (stereo not drawn)	/	27.0
O=S(=O)(c1ccc(NC(=S)Nc2ccc3c(c2)OCO3)cc1)N1CCCCC1	1.4	/
Cc1ccc(-n2c(N)c(C(=O)NCC3CCCO3)c3nc4ccccc4nc32)cc1 (stereo not drawn)	/	13.0
O=C(OCc1nnc(-c2ccccc2)o1)c1ccccc1NS(=O)(=O)c1ccc2c(c1)OCCO2	/	-9.0
CC(=O)NCc1ccc(C(=O)COC(=O)c2ccc(S(=O)(=O)N3CCCCCC3)cc2)o1	/	8.0
O=C1c2cccnc2C(=O)N1CCc1ccc(S(=O)(=O)NCc2ccccn2)cc1	/	28.0
COc1ccc(C(=O)NCCc2ccccn2)cc1S(=O)(=O)NC1CCCC1	/	-8.0
COc1ccc(Br)cc1S(=O)(=O)N1CCN(Cc2ccc3c(c2)OCO3)CC1	4.2	4.0
CC(NC(=O)COc1cccc(-n2cnnn2)c1)c1ccc2c(c1)OCO2 (stereo not drawn)	/	-3.0
CCCC(=O)N1CCCC(c2nc(-c3ccc(C(C)C)cc3)no2)C1 (stereo not drawn)	3.4	11.0
Cc1ccc(C(=O)OCC(=O)Nc2ccc(N(C)C)cc2)c(C)c1	/	-14.0
C=CCn1c(Cc2csc(N)n2)nnc1SCC(=O)Nc1ccc(S(N)(=O)=O)cc1	-0.3	16.0
O=C(Nc1ccc(OCC(=O)N2CCCC2)cc1)c1ccco1	/	-13.0
COc1ccc(-c2cc(=O)oc3c4c(ccc23)OCN(Cc2ccco2)C4)cc1	/	-19.0
COc1ccccc1N1CCN(C(=O)CCc2ccccc2)CC1	/	17.0
COC(=O)c1cccc(NS(C)(=O)=O)c1	-1.4	/
Cc1cc(C(=O)COC(=O)CN=C2NS(=O)(=O)c3ccccc32)c(C)n1C	/	-8.0
Cc1ccc(Cn2ccn(Cc3ccccc3)c(=O)c2=O)cc1	1.2	9.0
CCC(C(=O)N1CCN(c2ccccc2)CC1)n1sc2ccccc2c1=O (stereo not drawn)	/	34.0
Cc1oc(-c2ccccc2)cc1-c1ccn[nH]1	-0.1	/
O=C(Nc1cccnc1)C(=O)c1c(O)[nH]c2ccccc12	0.7	1.0
CC(C)CC(C(=O)O)N1C(=O)c2cc(Cl)c(Cl)cc2C1=O (stereo not drawn)	/	1.0
O=C(CCCN1CCOCC1)c1ccc(F)cc1	1.0	/
Oc1cccc2ccc(N3CCOCC3)nc12	/	11.0
CCCOc1ccc(C(F)(F)F)cc1NC(=O)c1cccnc1SCc1c(C)noc1C	/	3.0
C=CCN(c1nc(C)c(Cl)c(OC)n1)S(=O)(=O)c1ccc(C)cc1	1.2	/
CC(C)C(O)(CC#CCN1CCCC1)c1ccccc1 (stereo not drawn)	/	13.0
Cc1ccc(NC(=O)Nc2ccc3c(c2)oc(=O)n3C)cc1	/	-7.0
C=CCn1c(-c2cccnc2)nn(C(=O)c2cc(OC)c(OC)c(OC)c2)c1=S	9.2	1.0
O=C(COc1ccccc1)N(c1nccs1)C1CCCCC1	3.6	-21.0
CCCCC[C@H](O)/C=C/[C@@H]1[C@@H](C/C=C\CCCC(=O)O)[C@@H](O)C[C@H]1O (tested in a mixture with another compound)	-1.4	/
Cc1noc(C)c1CC(=O)N1CC(C(N)=O)Oc2ccccc21 (stereo not drawn)	/	-7.0
CC(C)Nc1nc(Oc2ccc(=O)n(-c3ccccc3)n2)nc(N(C)C)n1	/	10.0

Sorted by molecular weight (smallest number first): part of the list above
SMILES	MgrA-DNA mod	Sa helicase inh
Cc1oc(-c2ccccc2)cc1-c1ccn[nH]1	-0.1	/
O=C(CCCN1CCOCC1)c1ccc(F)cc1	1.0	/
CC(C)C(O)(CC#CCN1CCCC1)c1ccccc1 (stereo not drawn)	/	13.0
CC(C)Nc1nc(Oc2ccc(=O)n(-c3ccccc3)n2)nc(N(C)C)n1	/	10.0
CCCOc1ccc(C(F)(F)F)cc1NC(=O)c1cccnc1SCc1c(C)noc1C	/	3.0

(listing goes on)
SMILES	MgrA-DNA mod	Sa helicase inh
NC(N)=NC(N)=Nc1cc(-c2cccs2)[nH]n1	-0.7	/
O=C(CSc1nc(-c2ccccc2)cc(=O)[nH]1)c1c[nH]c2ccccc12	0.1	10.0
Clc1ccc(-c2noc(-c3csnn3)n2)cc1	0.3	/
COC(=O)C(C)OC(=O)c1ccc(Cl)c(Cl)c1 (stereo not drawn)	/	-1.0
CCCc1cc(=O)[nH]c(SCC(=O)N2CCCCCC2)n1	/	-8.0
COc1ccccc1C(=O)Nc1ccccc1C(=O)N1CCCCC1	5.0	-4.0
Cc1[nH]c(C)c(S(=O)(=O)N2CCCCC2)c1C(=O)N1CCCCC1	/	12.0
C[C@]12CC[C@@H]3c4ccc(OS(=O)(=O)O)cc4CC[C@H]3[C@@H]1CCC2=O	1.4	/
O=C(O)CNC(=O)COc1ccccc1	/	-3.0
CCOc1cc(C#N)cc(I)c1OCC(=O)OC	0.0	8.0
CC(=O)Nc1ccc(S(=O)(=O)N2CCCCCC2)cc1	/	19.0
Nc1nnc(C2CC2)s1	-0.3	-17.0
O=C(Cc1n[nH]c(=O)c2ccccc12)Nc1cccnc1	/	4.0
O=C(NC1CCN(Cc2ccccc2)CC1)c1cccc(N2CCCS2(=O)=O)c1	/	4.0
CCc1nnc(NC(=O)c2ccc(S(=O)(=O)N(C)C)cc2)o1	/	0.0
CC(C)Cc1ccc(S(=O)(=O)Nc2noc3ccccc23)cc1	/	-2.0
C=CCNCc1cccn1-c1ccccc1	-6.2	-1.0
O=C(/C=C/c1cn(-c2ccccc2)nc1-c1cccnc1)NCCCn1ccnc1	/	-10.0
O=C(CSCc1cnn(-c2ccccc2)c1-n1cccc1)NCCN1CCCC1	/	24.0
CCSc1nc(C(F)(F)F)nc2ccccc12	/	-3.0
COCCNC(=O)C1CCN(C(=O)c2sccc2-n2cccc2)CC1	/	-21.0
c1c2c(cc3sc(N4CCOCC4)nc13)OCCO2	-1.1	5.0
N#CC(C#N)=C1C=C(c2ccccc2)Oc2ccccc21	/	13.0
O=C(Nc1cccnc1)c1cc2ccccc2oc1=O	0.9	10.0
CCc1ccc(NC(=O)CSc2nncn3c2cc2occc23)cc1	1.7	3.0
COc1ccc2oc(=O)cc(CN3CCN(c4ncccn4)CC3)c2c1	-1.1	11.0
Cc1cccc(N2CCN(CCCNc3nnc4c5ccccc5n(C)c4n3)CC2C)c1 (stereo not drawn)	0.3	4.0
Cc1cc(/C=N/NC(N)=O)c(C)n1-c1ccc(C(F)(F)F)cc1	-2.5	/
CCOC(=O)C1=C(C)N=c2s/c(=C\c3ccc(OC(C)=O)cc3)c(=O)n2C1c1cccc([N+](=O)[O-])c1 (stereo not drawn)	0.0	/
O=C(c1cccc(Cl)c1)N(Cc1ccccc1)Cc1ccccc1	-1.6	3.0
Cc1nc(C)c(-c2ccnc(C34CC5CC(CC(C5)C3)C4)n2)o1	-2.7	/
CC1CCCCN1C(=O)CSc1nnc2c3ccccc3n(CC(=O)O)c2n1 (stereo not drawn)	-6.4	2.0
O=S(=O)(Oc1cc(Cl)cc(Cl)c1)c1cccc(S(=O)(=O)Oc2cc(Cl)cc(Cl)c2)c1	-0.3	/
COc1ccc(Br)cc1/C=C1\C(=O)N(c2ccc(Cl)c(C(=O)O)c2)N=C1C	-1.6	/
Cc1cc(C)c2cc(C(=O)Nc3ccccc3)[nH]c2c1	0.1	/
COCCC1C(=O)c2c(n(Cc3ccccc3)c3nc4ccccc4nc23)N=C1C (stereo not drawn)	/	8.0
Cc1[nH]nc2nc3c(c(-c4cc(C)n(C5CC5)c4C)c12)C(=O)CC(C)(C)C3	/	-22.0
Cc1onc(-c2ccccc2)c1-c1csc(-c2ccc(-c3csnn3)cc2)n1	/	-13.0
CCOC(=O)c1c(C)nsc1NC(=O)C1CCC1	5.1	10.0
Cc1ccc(Sc2ncnc3ccsc23)cc1	-1.2	/
COC(=O)CN1C(C)=Nc2ccc(Br)cc2C1c1ccccc1 (stereo not drawn)	-5.7	10.0
Cc1ccc2oc(=O)c3cnn(CC(=O)NC4CCC(C)CC4)c3c2c1 (stereo not drawn)	/	4.0
COc1cc2c(cc1OC)CN(C(=O)c1cc(C(C)(C)C)nn1C)CC2	0.2	/
CC(=O)N1CCN(C(=O)C2CCN(S(=O)(=O)c3ccccc3C(F)(F)F)CC2)CC1	/	-7.0
O=C(Nc1ccccc1C(=O)NCc1ccco1)c1ccc(Cl)cc1	2.0	13.0
Cc1cc(/C(N)=N\O)n(C)n1	-1.8	/
CCSc1nnc(NC(=O)COc2ccccc2)s1	/	-6.0
CC1=C(C#N)C(c2ccc3c(c2)CCC(C)(C)O3)C2=C(CCCC2=O)N1 (stereo not drawn)	-0.9	/
COc1cn(-c2ccccc2)nc1C(=O)OCc1ccc(C#N)cc1	/	-20.0
CCOc1ccccc1/C=C1/N=C(C)OC1=O	-0.8	/
COc1cc(OC)c2c3c(c(=O)oc2c1)CCCC3	/	17.0
c1ccc2sc(CCc3nc4ccccc4s3)nc2c1	-0.2	4.0
CC(=O)OC12CC3CC(C1)CC(C(=O)O)(C3)C2	1.6	17.0
COc1ccc(-n2c(-c3cccc(OC)c3)csc2=NCc2cccnc2)cc1	0.0	/
O=C(COc1ccc2c(c1)OCO2)NC12CC3CC(CC(C3)C1)C2	/	-9.0
c1csc(-c2csc3nc(CN4CCOCC4)nc(NC4CC4)c23)c1	/	-13.0
CCc1cc(=O)oc2c(C)c3occ(C)c3cc12	/	-20.0
Nc1c2c(nc3ccccc13)N(Cc1ccccc1)CC2	0.7	15.0
CCN1C(=O)/C(=C\c2ccc(OCC(N)=O)c(OC)c2)SC1=S	/	-6.0
Cc1c(Cl)cnc(NC(=O)COC(=O)COc2ccc3c4c(c(=O)oc3c2)CCC4)c1Cl	/	-12.0

Some of the entries so far, with the structure last:
MgrA-DNA mod | Sa helicase inh | SMILES
-1.8 | / | Cc1cc(/C(N)=N\O)n(C)n1
/ | -6.0 | CCSc1nnc(NC(=O)COc2ccccc2)s1
-0.9 | / | CC1=C(C#N)C(c2ccc3c(c2)CCC(C)(C)O3)C2=C(CCCC2=O)N1 (stereo not drawn)
/ | -20.0 | COc1cn(-c2ccccc2)nc1C(=O)OCc1ccc(C#N)cc1

Next records follow:
SMILES	MgrA-DNA mod	Sa helicase inh
O=C(OCC(=O)N1CCc2ccccc2C1)c1sc2sccc2c1Cl	/	-9.0
Cc1ccc(S(=O)(=O)C(CNC(=O)c2c(F)cccc2F)c2ccco2)cc1 (stereo not drawn)	/	0.0
CSC(=NCc1cccs1)NC#N	-2.4	/
CCOc1cccc2cc(C(N)=O)c(=NCc3ccccc3)oc12	1.9	14.0
O=C(CCSc1nc(-c2ccco2)cc(C(F)(F)F)n1)NCc1ccco1	/	-4.0
Cc1ccc(-c2nn(-c3cc(N4CCN(CCO)CC4)ccc3[N+](=O)[O-])c(=O)c3ccccc23)cc1C	-1.4	/
Cn1cc(/C(N)=N/O)c(=O)n(Cc2ccccc2)c1=O	-1.9	/
Cc1ccc(-n2c(C)nc3cc(C(=O)O)ccc32)c(C)c1	/	20.0
CC(=O)N1CC=C2C(C#N)=C(N)C(C#N)(C#N)[C@H](c3ccc(F)cc3F)[C@H]2C1	-1.9	9.0

Assay outcomes: PubChem, ICCB-Longwood Screening Facility, Harvard Medical School
